From PubChem
FEN1 inh = human FEN1 inhibition; P39748; Recombinant FEN1 flap cleavage, fluorescence, 15 min; Potency, µM (titrated, usually from 114 µM), for the others: top-dose activity change, negative = inhibition, most hits filed as inhibitors; hit rate 0.35% among 390,000; AID 588795; further: nearly all actives have a fitted effect of over 65% in size
Target sequence (P39748 whole entry, looked up): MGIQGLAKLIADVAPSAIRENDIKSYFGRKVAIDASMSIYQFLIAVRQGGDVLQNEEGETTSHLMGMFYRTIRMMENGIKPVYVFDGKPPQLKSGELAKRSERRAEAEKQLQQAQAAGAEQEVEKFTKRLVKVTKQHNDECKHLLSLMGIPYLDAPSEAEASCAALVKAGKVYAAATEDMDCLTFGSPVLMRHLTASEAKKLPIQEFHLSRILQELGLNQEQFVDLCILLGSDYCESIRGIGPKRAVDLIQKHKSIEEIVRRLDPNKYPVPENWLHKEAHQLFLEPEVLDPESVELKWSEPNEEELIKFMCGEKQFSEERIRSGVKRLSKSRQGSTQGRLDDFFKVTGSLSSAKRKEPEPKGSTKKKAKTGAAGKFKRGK
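Steps: FEN1 (10 nM) dispensed; compound added by pin tool; 15 min at room temperature; substrate added to 50 nM final; reads at 0 min and 15 min; data normalized and fitted (four-parameter Hill).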
DT40 TDP1 CPT = DT40-hTDP1 cell growth loss with CPT; AID 686979; chicken DT40 Tdp1-/-;hTDP1 cells + 20 nM CPT, ATP luminescence, 48 h; hit rate 12% among 420,000; Potency, µM (doses to about 46.2 µM), without a hit: top-dose activity change, negative = growth inhibition, most hits filed as inhibitors; further: nearly all actives have a fitted effect of over 55% in size
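Cell growth measured by CellTiter-Glo luminescence after a minimum 48 h, 37 C compound exposure with 20 nM CPT in Tdp1-knockout DT40 cells stably expressing hTDP1, seeded 400/well; qHTS titration format.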
* marks the source's active call; other numbers are inactive results; ? = inconclusive; · = not tested or not shown; & = joins results of further samples; ! = not active in a repeat. The call rests on the fitted dose curve; in most records, active means well fitted curve in the direction sought with a large enough effect; inconclusive means small, poorly fitted or top-dose-only effect, or another doubt; inactive means no such curve, though single readings can be large; an effect the other way counts as inactive or inconclusive. On the % scale 0 is the no-effect control and ±100 the full control effect; potency means the concentration at half of the fitted maximal effect. An excerpt; most or all hits stand in other tables.

SMILES	FEN1 inh	DT40 TDP1 CPT
CCOc1ccc(C(=O)CCC(=O)NC(C)C(=O)OC)cc1 (stereo not given)	-9%	?
O=C(Nc1ccc(N2CCN(C(=O)c3cccs3)CC2)c(Cl)c1)c1cccnc1	21%	?
O=C(Cc1ccc([N+](=O)[O-])cc1)Nc1cccc(C(F)(F)F)c1	8%	?
O=C(CN1C(=O)CSc2ccc(C(F)(F)F)cc21)Nc1ccccc1	1%	?
Cc1ccc(SCCC(=O)NCc2ccncc2)cc1	15%	-36%
Cc1ccccc1N=C(N)Nc1ccccc1C	21%	27µM*!
CC(C)(C)c1nnc2cccc(Cl)n12	0%	-6%
CNC(=O)CSc1nnc(-c2cc(C)cc(C)c2)o1	-18%	-2%
O=S(=O)(NCc1nnc2ccccn12)c1ccc(F)cc1	-1%	0%
CCCCN(C)C(=O)CCC(=O)NNc1nc2ccccc2c2nc(C)nn12	-3%&1%	-28%&-5%
COc1ccc(-n2c(O)cnc2Nc2nc(C)cc(C)n2)cc1OC	7%	-11%
Cc1ccc(S(=O)(=O)N2CC3CCC2C3)cc1 (stereo not given)	1%	-20%
COc1cccc(-c2onc3ccc(C(C)=O)cc23)c1	1%	-13%
CC12CCC(C(=O)N3CCOCC3)([C@H](Br)C1=O)C2(C)C (stereo not given in full)	-1%	1%
CCOc1cc(S(=O)(=O)NCCCn2ccnc2)ccc1Cl	23%	?
COc1ccc2cc(C#N)c(Cl)nc2c1	1%	10%
NNC(=O)c1ccc(COc2cccc3cccnc23)cc1	7%	-4%
O=C(Nc1cc(=O)[nH]c2nc(-c3ccc(Cl)cc3)nn12)c1ccccc1	-3%	-29%
Cn1nc(-c2ccccc2)cc1NC(=O)c1ccc(Cl)cc1	-1%	-30%
CCCN1CNc2c(c(=O)[nH]c(=S)n2-c2ccccc2Cl)C1	3%	-3%
Cc1ccc(-n2cccn2)cc1	7%	-13%
CS(=O)(=O)Nc1ccc2[nH]c(=O)[nH]c2c1	-6%	-2%
CC(=O)c1cccc(NC(=O)CN2C(=O)C3C4C=CC(C4)C3C2=O)c1 (stereo not given)	-4%	-11%
CC1=NN(c2ccccc2)C(=O)/C1=C/c1cn(C)c2ccccc12	-22%	?
O=C(NCCCN1CCCC1=O)c1cn(-c2ccccc2)nc1-c1ccccc1	6%	-11%
CCCC(=O)Nc1nc2ccc(NC(=O)c3cccnc3)cc2s1	3%	9.2µM*
CCCc1cc(N2CCCC(C(=O)Nc3c(OC)cccc3OC)C2)n2ncnc2n1 (stereo not given)	0%	-18%
COc1ccc(/C=C/C(=O)NNc2c(F)c(F)cc(F)c2F)cc1OC	-1%	-15%
O=C1NC(NS(=O)(=O)c2ccc(Cl)cc2)(C(F)(F)F)C(=O)N1c1ccccc1 (stereo not given)	-2%	-7%
O=C(CN1CCCCC1)N/N=C/c1cc2ccccc2nc1Cl	-11%	?
Cc1ccc(C(=O)NCCn2ccc3ccccc32)cc1[N+](=O)[O-]	-10%	13µM*
O=C(CN(C(=O)c1csnn1)c1ccc(F)c(Cl)c1)NC1CCCC1	-2%	0%
CC(=O)NC(c1ccc2ccccc2c1)c1ccc2cccnc2c1O (stereo not given)	-4%	3.3µM*
NC(=O)C[C@H](NC(=O)Cc1ccc(O)cc1O)C(=O)O	·	26%&12%
Cc1ccc(C(=O)ONc2ccc(N=O)cc2)cc1	4%	-8%
CCN(c1ccc(OC)cc1)S(=O)(=O)c1ccc2c(c1)CC(C)N2C(=O)C1CC1 (stereo not given)	-24%	21µM*
COc1ccc(C2CC(=O)Oc3cc(OC)ccc32)cc1 (stereo not given)	5%	-5%
Cc1noc(C)c1S(=O)(=O)N1CCC(C(=O)NCCC2=CCCCC2)CC1	-3%	?
COc1cccc(C(=O)n2c(SC)nc3cc4c(cc32)OCCO4)c1	0%	?
CC(=O)c1c(C)[nH]c(C(=O)NCc2cccs2)c1C	-3%	-13%
COCCNC(=O)CN(c1cc(C(F)(F)F)ccc1Cl)S(C)(=O)=O	2%	-7%
CC(=O)Nc1ccc(N/C=C/C(=O)c2ccc(Br)cc2)cc1	-13%	4%
O=C(CCC(NC(=O)OCc1ccccc1)C(=O)OCC(=O)N1CCCCC1)OCC(=O)N1CCCCC1 (stereo not given)	16%	2%
CCC1=C(OC(=O)N(CC)CC)N2C(=O)OC(=NCC3CC3)[C@]2(Cc2ccccc2)[C@H]2C1=CC[C@H]1C(=O)N(CC(=O)OC)C(=O)[C@H]12	-20%	?
CCCC(C)C(=O)OCC(=O)Nc1c(Br)cc(C)cc1Br (stereo not given)	-4%	4%

Ordered by length of the SMILES (falling): part of the list above.
SMILES	FEN1 inh	DT40 TDP1 CPT
CCOc1cc(S(=O)(=O)NCCCn2ccnc2)ccc1Cl	23%	?
NNC(=O)c1ccc(COc2cccc3cccnc23)cc1	7%	-4%
Cc1ccc(C(=O)ONc2ccc(N=O)cc2)cc1	4%	-8%

Continuation:
SMILES	FEN1 inh	DT40 TDP1 CPT
O=C(CNC(=O)C1COc2ccccc2O1)N/N=C/c1cc(Br)c(O)c(Br)c1 (stereo not given)	-11%	?
COc1ccc(C(=O)NC2CCN(S(=O)(=O)c3ccc(C)cc3)CC2)cc1	-1%	-11%
N/C(CC(=O)NC1CCCCC1)=N\OCC(=O)Nc1ccc(Cl)c(Cl)c1	6%	?
Clc1nnc(Cl)c2c1ncn2Cc1ccccc1	-5%	-5%
Cc1ccc(NC(=O)C2C3CCC(O3)C2C(=O)O)cc1C (stereo not given)	23%	2%
O=S(=O)(Nc1cccc(-c2nc3cccnc3s2)c1)c1ccc2c(c1)OCCO2	-7%	?
COc1ccc(Nc2ncnc3c2c(C)c(C)n3CCO)cc1	-14%	-15%
COc1ccc(OC)c(C2C(C(=O)c3ccc(C)o3)=C(O)C(=O)N2c2cc(C)on2)c1 (stereo not given)	-1%	?
Cc1cc2c3nonc3ccc2n1C	-6%	8%
O=C(Nc1ccc(F)cc1)c1ccc(-n2cncn2)c([N+](=O)[O-])c1	1%	-17%
Cc1cc2c(nc1C)CCCN2C[C@@H](C)O/N=C1/[C@H]2CCn3c(=O)n(-c4ccccc4)c(=O)n3[C@H]2[C@H](O)[C@@H]2O[C@H]12	-5%	?
CCS(=O)c1ccccc1C(=O)OC(C)C(=O)Nc1ccc(S(=O)(=O)N2CCCC2)cc1 (stereo not given)	15%	13µM*
COc1cccc(CN2CC(C(=O)N3CCCCCC3)CCC2=O)c1 (stereo not given)	8%	-8%
Nn1c(Cc2ccccc2F)n[nH]c1=S	-2%	4%
Cc1nc(N)c(Cc2ccc(Cl)cc2Cl)c(N)n1	1%	12µM*
Cc1ccc(C(=O)NCCc2ccc(S(=O)(=O)N3CCCC3)cc2)cc1	-2%	-11%
CCCn1c(SCC(=O)c2cc(C)n(-c3ccc4c(c3)OCO4)c2C)n[nH]c1=O	13%	23µM*
O=C(Cc1c(F)cccc1Cl)N1CCOCC1	20%	-3%
COc1cccc(CNS(=O)(=O)c2c(C)[nH]c(C)c2C(=O)N2CCCCC2)c1	0%	26µM*
Cc1ccc(S(=O)(=O)NCC(=O)OC(C)C(=O)c2ccccc2)cc1 (stereo not given)	-5%	2%
CC(C)CC(c1nnnn1CC1CCCO1)N1CCN(C2CCCC2)CC1 (stereo not given)	2%	-2%
CCCCOc1ccc(C(=O)N/C(=C/c2cccc([N+](=O)[O-])c2)C(=O)O)cc1	-1%	-7%
Cc1nn2c(NCC(C)C)c3c(nc2c1-c1ccccc1)CCC3	0%	-29%
O=C(C1CC(=O)N(c2ccc(F)cc2)C1)N1CCN(c2ccc(F)cc2)CC1 (stereo not given)	-2%	-22%
CCOC(=O)NC(=O)/C(C#N)=C\NNc1ncc(C(F)(F)F)cc1Cl	-9%	23%
CN(CC(=O)Nc1cccc2c1CCCC2)S(=O)(=O)c1ccc(Cl)cc1	-2%	-27%
COc1ccc2nnc(-c3ccc(C(F)(F)F)cc3)n2n1	9%	-4%
O=C(COC(=O)CNC(=O)c1ccc(Cl)c([N+](=O)[O-])c1)NC(=O)CN1CCCC1=O	-5%	19%
O=C(c1noc2c1CCCC2)N1CCN(Cc2ccccc2)CC1	-12%	?
O=C(Nc1nc2c(s1)CN(Cc1ccccc1)CC2)c1c(F)cccc1F	11%	-29%
O=C(N1CCOCC1)N1CCN(S(=O)(=O)c2ccccc2)C1	1%	3%
COc1cc(/C=N/NC(=S)NC2CC3CCC2C3)ccc1O (stereo not given)	-14%	?
CCOC(=O)c1c(C)[nH]c(C)c1S(=O)(=O)N1CCN(C(=O)c2ccco2)CC1	-2%	2%
COc1ccc(CCNC(=O)CC2SC(=Nc3cc(C)cc(C)c3)NC2=O)cc1OC (stereo not given)	3%	-27%
CCc1nnc(NC(=O)C(C)C)s1	7%	-9%
CCCOc1cccc(C2C(C(=O)c3cccs3)=C(O)C(=O)N2CCN2CCOCC2)c1 (stereo not given)	18%	-4%
CCOC(=O)N1CCC2(CC1)C(C#N)=C(N)OC1=C2C(=O)CCC1	-2%	4%
O=C(COc1ccc2c3c(c(=O)oc2c1)CCC3)NCc1ccccn1	-8%	-1%
O=C1OC(N2CCN(C/C=C/c3ccccc3)CC2)c2ccccc21 (stereo not given)	-5%	-13%
CCc1cccc(OC2OC(CO)C(O)C(O)C2NC(C)=O)c1 (stereo not given)	6%	26%
O=C(c1ccccc1)c1ccccc1C(=O)N1CCN(Cc2ccccc2F)CC1	-6%	?
Cc1ccc(-n2nnc(-c3cc4ccccc4n3C)n2)cc1	5%	-23%
CCOc1ccc(NC(=O)CN2CCN(c3ccc(F)cc3)CC2)cc1	2%	-6%
O=C(Nc1ccc(OC(F)F)cc1)c1ncc(Cl)c(Cl)c1Cl	-1%	18%
Cc1cccc(N2C(=O)CC(N3CCN(Cc4ccc5c(c4)OCO5)CC3)C2=O)c1 (stereo not given)	-9%	1%

Record cards (already shown). Screens in order: FEN1 inh | DT40 TDP1 CPT
CCOC(=O)N1CCC2(CC1)C(C#N)=C(N)OC1=C2C(=O)CCC1 across the screens: -2% | 4%
COc1cc(/C=N/NC(=S)NC2CC3CCC2C3)ccc1O (stereo not given) across the screens: -14% | ?

The listing continues:
SMILES	FEN1 inh	DT40 TDP1 CPT
O=C(C1CCN(S(=O)(=O)c2ccccc2)CC1)N(CCc1ccccc1)Cc1ccco1	1%	?
O=C(/C=C/c1ccc(Cl)cc1)N1CCN(c2ccccc2[N+](=O)[O-])CC1	-10%	-7%
O=C(Nc1cccnc1)c1cc(S(=O)(=O)N2CCCCC2)c(Cl)cc1Cl	1%	1%
O=C(O)Cc1sc(Nc2ccc(F)cc2)nc1-c1cccs1	-11%	11%
COc1ccc(C2=NN(CC(=O)NCc3ccco3)C(=O)CC2)cc1	3%	8%
CCCCN(C)C(=O)C1CCN(CCCc2ccccc2)CC1	-10%	-17%
COc1cc(/C=N/N=C2\CC3CCC2(C)C3(C)C)ccc1O (stereo not given)	-13%	-10%
CN1CCN(C(=O)c2cc3nc(-c4ccccc4)cc(-c4ccccc4)n3n2)CC1	-4%	-28%
CCCn1c(=O)c(C(=O)NCc2ccncc2)c(O)c2ccccc21	-11%	-4%
O=C(Oc1cccc(-n2cnnn2)c1)c1ccccc1Cl	-4%	13%
CN1C(=O)C2(Nc3ccccc3-c3nc4ccccc4n32)c2ccccc21 (stereo not given)	5%	-20%
O=C(N/N=C/c1ccccc1OCc1ccccc1Cl)c1cccnc1	-2%	?
Cc1ccc(SC(C)C(=O)NCc2cccnc2)cc1 (stereo not given)	-10%	3%
COc1cc(NC(=O)c2cnc(N)o2)cc(C(=O)Nc2cccc(C(F)(F)F)c2)c1	-30%	21µM*!
Cc1cc(C)cc(OCc2nnc(N)s2)c1	7%	-6%

In the list so far, these contain a COOH group.
SMILES	FEN1 inh	DT40 TDP1 CPT
NC(=O)C[C@H](NC(=O)Cc1ccc(O)cc1O)C(=O)O	·	26%&12%
Cc1ccc(NC(=O)C2C3CCC(O3)C2C(=O)O)cc1C (stereo not given)	23%	2%
CCCCOc1ccc(C(=O)N/C(=C/c2cccc([N+](=O)[O-])c2)C(=O)O)cc1	-1%	-7%
O=C(O)Cc1sc(Nc2ccc(F)cc2)nc1-c1cccs1	-11%	11%

Reprinted from the listing, 2 compounds:
SMILES	FEN1 inh	DT40 TDP1 CPT
COc1cc(NC(=O)c2cnc(N)o2)cc(C(=O)Nc2cccc(C(F)(F)F)c2)c1	-30%	21µM*!
Cc1cc(C)cc(OCc2nnc(N)s2)c1	7%	-6%
